# YopH PTP inh: blocks Yersinia enterocolitica YopH tyrosine phosphatase; fluorescence Ex485/Em525; inhibition, %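 (about 10 µM by stock and volumes)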; 140,000 tested, 0.16% active; AID 898;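 active = inhibition of 50% or more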;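 also: controls were vehicle for no effect and minimum signal wells for full effect; inactives centre near -20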
# Mtb growth: M. tuberculosis H37Rv growth inhibitors, H37Rv strain (AID 1626); M. tuberculosis H37Rv growth inhibition; higher % means a stronger effect; inhibition, % at 10 µM, or IC50 in µM where a hit was titrated; 220,000 tested, 0.95% active;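 active = confirmed in a dose series; inconclusive = inhibition above 80% but not taken into the dose series; inactive = below 80% or under 30% at every dose of the series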;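 also: bacteria incubated seven days before Alamar blue readout; 0% = bacteria only wells and 100% = bacteria with antibiotic wells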
# Arbovirus anti: blocks arbovirus infection | inhibition, % at 10 µM | AID 1251 | arbovirus infection cell-based antiviral screen | 200,000 tested, 0.37% active;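 active = inhibition from about 30%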;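 also: bluetongue infection of BSR cells; cell survival read as ATP light after 72 h; 0% = infected wells without compound and 100% = uninfected wells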
# RecA splice inh: Mtb RecA intein splicing inhibition; cell-free RecA intein splicing, fluorescence; inhibition, %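 (about 9 µM by stock and volumes)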; 290,000 tested, 0.75% active; in the data active = inhibition above about 30%; inconclusive = no clear call, values can overlap the other calls;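 also: 0% = vehicle wells and 100% = reference inhibitor control wells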
# Target sequence (P9WHJ3 whole entry, looked up, canonical isoform): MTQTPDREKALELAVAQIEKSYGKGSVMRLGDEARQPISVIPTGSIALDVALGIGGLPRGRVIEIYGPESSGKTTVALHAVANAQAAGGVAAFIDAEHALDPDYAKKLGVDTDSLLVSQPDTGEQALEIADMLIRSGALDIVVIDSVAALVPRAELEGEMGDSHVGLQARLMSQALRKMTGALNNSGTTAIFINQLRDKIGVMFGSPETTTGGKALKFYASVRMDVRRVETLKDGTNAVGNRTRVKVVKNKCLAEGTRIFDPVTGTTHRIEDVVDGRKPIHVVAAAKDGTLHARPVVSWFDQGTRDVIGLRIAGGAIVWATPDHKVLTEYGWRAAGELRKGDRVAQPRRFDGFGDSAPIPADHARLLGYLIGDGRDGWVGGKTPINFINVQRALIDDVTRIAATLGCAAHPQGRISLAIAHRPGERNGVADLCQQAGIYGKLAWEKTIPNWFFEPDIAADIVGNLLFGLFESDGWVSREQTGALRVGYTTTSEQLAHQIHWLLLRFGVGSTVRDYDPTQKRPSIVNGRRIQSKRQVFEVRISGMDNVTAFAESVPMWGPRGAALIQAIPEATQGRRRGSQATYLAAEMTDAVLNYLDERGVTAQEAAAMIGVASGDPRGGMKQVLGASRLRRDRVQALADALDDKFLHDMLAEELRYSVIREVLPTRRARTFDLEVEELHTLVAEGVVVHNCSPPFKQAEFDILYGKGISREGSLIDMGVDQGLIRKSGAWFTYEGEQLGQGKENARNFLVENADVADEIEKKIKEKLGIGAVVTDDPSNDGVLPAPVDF
# Mtb betalactam: beta-lactam sensitization of Mtb H37Rv; inhibition, % at 25 µM; M. tuberculosis H37Rv growth with meropenem, percent inhibition; hits of this screen are not shown here; 330,000 tested, 0.27% active;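 active = about 74% or more and at least 40 points above the plate without the antibiotic, then above 30% in a dose series; inconclusive = first-round hits that could not be retested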;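 also: growth measured after seven days incubation then overnight dye step; 0% = bacteria only wells and 100% = bacteria with antibiotic; twin plates without the antibiotic show which effects depend on it; some results filed as inactive read as strong as hits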
# Arbovirus anti repeat: recorded beside Arbovirus anti, whose call it bears; inhibition, %; measured here: 10K subset replicate screen; many hits read low in the repeat;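 first of two repeat runs on a subset; 0% = infected and 100% = uninfected wells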
# * = called active by the depositor; ? = inconclusive; / = not tested or not shown. Some of the compounds tested; the hit share may differ from the screen's.
SMILES,YopH PTP inh,Mtb growth,Arbovirus anti,RecA splice inh,Mtb betalactam,others
O=C(CSc1nnc(-c2ccc(Br)cc2)o1)Nc1cccc(C(=O)O)c1,/,/,/,1.7,-12,
O=C(c1ccccc1)c1c[nH]c(C(=O)NNc2cccc(Cl)n2)c1,/,0%,-4,-0.6,-5,
Cn1c(=O)c2c(-c3ccccc3)n(Cc3ccccn3)cc2n(C)c1=O,-36,-4%,2,-2.3,-17,
Cc1nc(N=C(N)N)nc2c(C)cccc12,/,2%,-21,-1.0,8,
CCC(=O)NC(=S)Nc1ccc(NC(=O)c2ccco2)c(Cl)c1,/,17%,-5,-0.5,31,
O=c1nccc(N/N=C/c2cccc(O)c2)[nH]1,/,/,/,-3.6,-6,
CCOC(=O)C(C)(C)n1nnc(-c2ccc([N+](=O)[O-])cc2)n1,/,4%,5,0.3,10,
O=C(CSc1ncnc2c1cnn2-c1ccc(F)cc1)NCc1ccc2c(c1)OCO2,-35,4%,-11,1.1,6,
Cc1ccc(S(=O)(=O)N2CCc3ccccc3C2CN2C(=O)c3ccccc3C2=O)cc1 (stereo unspecified),2,-10%,5,-5.1,-4,
CN(C)C(=O)CCC(=O)N1CCCC(C(=O)c2ccc3c4c(cccc24)CC3)C1 (stereo unspecified),/,8%,4,2.5,-4,
CC1CCC(NC(=O)COC(=O)CSc2ccc(C(N)=O)cc2[N+](=O)[O-])CC1 (stereo unspecified),/,/,/,-1.0,-1,
COc1ccccc1-c1nnc(SCC(=O)NC2CCCCC2)o1,-16,4%,0,-0.6,?,Arbovirus anti repeat=5
O=C(CCN1C(=O)[C@@H]2Cc3ccccc3CN2C1=O)N[C@@H](C(=O)O)c1ccccc1,/,/,/,1.6,-5,
N/C(Cc1ccc(Cl)cc1Cl)=N\OC(=O)c1ccc(Br)o1,/,10%,/,2.4,4,
Cc1cccc(NC(=O)N(Cc2cc3cc(C)cc(C)c3[nH]c2=O)CC2COCCO2)c1 (stereo unspecified),-13,0%,-3,4.6,-3,
CCN(CC(=O)NC(=O)NC1CCCCC1)Cc1ccccc1,/,/,/,1.1,-7,
O=C(c1cccs1)N1CCC(c2nc3c(nnn3Cc3ccccc3Cl)c(=O)[nH]2)CC1,/,/,/,1.5,-1,
CCOC(=O)CSc1nc(N)c(C#N)cc1C#N,-37,4%,6,0.7,0,
CCC(C)/C(C)=N/NC(=O)c1ccc(CSc2nc3ccccc3s2)cc1 (stereo unspecified),-38,16%,-6,7.6,3,
O=C(Nc1ccccc1)c1ccc(NCC2CCCO2)c([N+](=O)[O-])c1 (stereo unspecified),-30,5%,-1,0.2,4,

# Next section; it opens with the 2 that closed the last part.
SMILES,YopH PTP inh,Mtb growth,Arbovirus anti,RecA splice inh,Mtb betalactam,others
CCC(C)/C(C)=N/NC(=O)c1ccc(CSc2nc3ccccc3s2)cc1 (stereo unspecified),-38,16%,-6,7.6,3,
O=C(Nc1ccccc1)c1ccc(NCC2CCCO2)c([N+](=O)[O-])c1 (stereo unspecified),-30,5%,-1,0.2,4,
CCCc1nnc(SCC(=O)N2CCOCC2)n1CC1CCCO1 (stereo unspecified),/,-3%,-4,1.7,0,
O=C(COC(=O)CCc1ccccc1)Nc1ccccc1OC(F)F,/,-6%,/,1.4,3,
O=C(NC1CCCCC1)c1ccc(-c2ccc(Cl)cc2)o1,/,/,/,0.0,-16,
C/C(=N\OCC(=O)Nn1c(C)nc2ccccc2c1=O)c1cccs1,/,-11%,/,-0.9,-7,
Cc1ccc(C(C(=O)NC2CCCC2)N2CCc3ccccc32)cc1 (stereo unspecified),0,-4%,12,-0.7,0,
O=C(CN1CCN(Cc2ccccc2Cl)CC1)N=Nc1c(O)[nH]c2ccccc12,-35,-9%,-25,1.4,7,
CCCCCN=Cc1c(C)[nH]n(-c2nc3ccccc3s2)c1=O,-50,-4%,-30,0.1,18,
COc1ccc(CN2CCN(c3ncccn3)CC2)c(C)c1C,/,/,/,1.4,-4,
CCCCn1c(O)c(C(=O)/C=C/c2c[nH]c3ccccc23)c(=O)[nH]c1=O,/,11%,/,-0.6,3,
Cc1c(/C=N/NC(=O)c2ccc(Br)o2)cnn1C,/,-4%,/,0.8,-6,
Cc1ccc(-c2nnc(SCC(=O)N/N=C/c3ccccc3C(=O)O)n2-c2ccc(C)cc2)cc1,/,-9%,/,0.3,3,
CC(C)CN1C(=O)c2ccc(C(=O)Nc3ccc(OCC(=O)O)cc3)cc2C1=O,/,/,/,0.8,4,
CCN1CCN(C(=O)CS(=O)(=O)Cc2nc(-c3ccc(C)cc3)oc2C)CC1,-33,3%,4,3.9,1,Arbovirus anti repeat=13
CCCCn1nnnc1SCC(=O)Nc1ccc(N(C)C)cc1,-17,37%,-5,-0.8,-11,
CCOc1ncccc1C(=O)Nc1ccc(-c2cn3ccsc3n2)cc1,-17,1%,5,/,-5,
COC(=O)c1c(NC(=O)c2ccoc2C)sc(C)c1C,/,/,/,-1.2,-7,
O=C(CCCOc1ccccc1)n1nnc2ccccc21,-51,4%,3,/,7,Arbovirus anti repeat=-11
C#CC(CC)(CC)NC(=O)c1c(C)noc1C,5,7%,-2,-6.2,1,
CCOC(=O)/C(C#N)=C\c1ccc(CC)s1,-41,-6%,-1,-0.5,1,
COc1ccc(N2C(=O)C(CC(=O)Nc3ccccc3)N(Cc3ccc4c(c3)OCO4)C2=O)cc1 (stereo unspecified),-27,7%,2,-6.1,-4,
O=C1CC(O)(C(F)(F)F)Oc2c1ccc1ccccc21 (stereo unspecified),-42,5%,-5,1.5,7,
CCOc1ccc(Br)cc1S(=O)(=O)Nc1cccc(S(=O)(=O)NC2=NCCC2)c1,/,8%,4,2.6,1,
Cn1c(NCc2ccccc2O)nc2ccccc21,-19,-3%,2,-3.1,-9,
Cc1ccnc(NC(c2ccncc2)c2c(C)[nH]c3ccccc23)c1 (stereo unspecified),-13,-3%,1,1.1,-1,
O=C(CCC1CCCC1)N=C1SC2CS(=O)(=O)CC2N1Cc1ccccc1 (stereo unspecified),/,/,/,-1.7,1,
COc1ccc(C(=O)N2CC3(C)CC2CC(C)(C)C3)cc1 (stereo unspecified),3,-12%,3,2.0,7,
Nc1cc(=O)[nH]n1C1CCCCC1,/,-1%,8,15,-6,
CCOC(=O)CN1C(=O)Nc2ccc(Br)cc2C1c1ccccc1 (stereo unspecified),-154,2%,5,/,-1,
CCN(CC)S(=O)(=O)c1cc(OC)c(Cl)cc1Cl,-16,3%,7,0.7,11,
CCCCOC(=O)Nc1ccc(C(=O)OCCC)cc1,18,2.3µM*,-3,3.2,11,
CCOC(=O)c1cc2cc3ccccc3cc2[nH]1,-26,2%,8,44*,10,
Cc1ccc(NC(=O)CSc2nnc(NC(=O)CN3CCOCC3)s2)cc1,-52,-13%,4,-6.7,9,
O=C(CCC1CCCCC1)NCCN1CCOCC1,/,/,/,0.2,-7,
CCCn1nnc(NC(=O)c2ccccc2Cl)n1,-37,0%,-3,0.6,1,
COc1ccccc1N(CC(=O)Nc1ccccc1C(=O)NCC(C)C)S(C)(=O)=O,-20,-5%,6,-3.7,8,
O=C1CCC(C(=O)N2CCCCCC2)CN1Cc1cccc(C(F)(F)F)c1 (stereo unspecified),/,/,/,2.0,2,
Cc1ccc(C2NC(c3ccc(C)cc3)C([N+](=O)[O-])C(C)(C)C2[N+](=O)[O-])cc1 (stereo unspecified),-18,-2%,0,6.2,8,
CCNc1nc(SC(C)C(=O)OC)nc(N(C)C)n1 (stereo unspecified),/,7%,8,0.3,9,
COc1ccc(C(=O)n2nc(C#N)c(C#N)c2N)cc1,/,-15%,/,1.3,-4,
Nc1ncc(Br)cc1S(=O)(=O)Nc1cc(C(F)(F)F)cc(C(F)(F)F)c1,/,/,/,4.1,0,
O=C(NCC1CCCO1)C(c1cccs1)N(Cc1ccccc1Cl)C(=O)c1ccc(-c2ccccc2)[nH]1 (stereo unspecified),-11,14%,-13,0.2,-4,
COc1ccc(Nc2n[nH]c(N)c2C(N)=O)cc1,/,-3%,2,-3.3,-4,
Clc1cccc(CN2CCCCCC2)c1Cl,/,/,/,-0.5,-2,
Cc1nc2nc(SCC(=O)c3ccccc3)[nH]c2cc1Br,/,-12%,/,0.2,4,
COc1ccc(C(=O)N(C)CC(=O)Nc2cccc(F)c2)cc1S(=O)(=O)NC1CCCC1,/,/,/,1.3,-1,
CC(C)CN(C(=O)CN1CCc2ccccc21)c1c(N)n(CC(C)C)c(=O)[nH]c1=O,/,3%,2,-2.6,-1,
O=C(N/N=C/c1c(F)c(F)c(F)c(F)c1F)c1cccc(S(=O)(=O)N2CCOCC2)c1,/,?,-3,6.9,99,
NC(=O)COC(=O)c1ccc(NS(=O)(=O)c2ccc3c(c2)OCCO3)cc1,/,5%,/,2.8,1,
CCNC(=O)Cn1c(=O)c2c(ncn2Cc2ccccc2)n(Cc2ccccc2)c1=O,-31,-2%,6,0.8,-9,
C=CCOc1ccc(/C=N/NC(=O)CN(c2cc(Cl)ccc2OC)S(=O)(=O)c2ccc(C)c([N+](=O)[O-])c2)cc1,-19,25%,2,2.3,7,
O=C(N/N=C/c1cccc([N+](=O)[O-])c1)c1cc2c(ccc3ccccc32)o1,8,/,-8,-2.6,6,
O=C(c1ccccc1)N1CCN(C(=O)N2CCOCC2)CC1,2,-6%,-2,/,-5,
CCOc1ccc(S(=O)(=O)N2CCCC(C(=O)N3CCOCC3)C2)cc1Cl (stereo unspecified),/,/,/,0.0,-5,
CCOc1ccccc1OCC(=O)NC1CCCCC1,-9,2%,-5,0.7,4,
COc1ccc(-n2cc(-c3ccccc3)c3c(N4CCN(CCO)CC4)ncnc32)cc1,41,1%,-33,3.4,20,
Cc1cc(C)nc(N2CCC(C(=O)NC3CC3)CC2)n1,/,/,/,3.5,-4,
CSCCC(NC(=O)c1ccccc1)C(=O)N(C)CC(=O)Nc1ccc(N2CCOCC2)cc1 (stereo unspecified),/,/,/,-0.7,-11,
CCOc1nc(-c2ccccc2)ccc1-c1noc(-c2ccco2)n1,-19,1%,-4,-2.8,?,
COc1cc(C2C(Oc3ccccc3C)C(=O)N2Cc2ccc(F)cc2)cc(OC)c1OC (stereo unspecified),-10,-4%,-2,-3.5,-3,
C=CCSc1n[nH]c(-c2ccc(OCCC)cc2)n1,-31,-10%,-11,1.6,74,

# Seven structures out of the list, sorted by molar mass, largest number first.
SMILES,YopH PTP inh,Mtb growth,Arbovirus anti,RecA splice inh,Mtb betalactam,others
C=CCOc1ccc(/C=N/NC(=O)CN(c2cc(Cl)ccc2OC)S(=O)(=O)c2ccc(C)c([N+](=O)[O-])c2)cc1,-19,25%,2,2.3,7,
COc1ccc(C(=O)N(C)CC(=O)Nc2cccc(F)c2)cc1S(=O)(=O)NC1CCCC1,/,/,/,1.3,-1,
O=C(N/N=C/c1c(F)c(F)c(F)c(F)c1F)c1cccc(S(=O)(=O)N2CCOCC2)c1,/,?,-3,6.9,99,
COc1cc(C2C(Oc3ccccc3C)C(=O)N2Cc2ccc(F)cc2)cc(OC)c1OC (stereo unspecified),-10,-4%,-2,-3.5,-3,
O=C(N/N=C/c1cccc([N+](=O)[O-])c1)c1cc2c(ccc3ccccc32)o1,8,/,-8,-2.6,6,
CCOc1ccccc1OCC(=O)NC1CCCCC1,-9,2%,-5,0.7,4,
Clc1cccc(CN2CCCCCC2)c1Cl,/,/,/,-0.5,-2,

# Continuation.
SMILES,YopH PTP inh,Mtb growth,Arbovirus anti,RecA splice inh,Mtb betalactam,others
COc1cc(CCC(=O)OCn2nnc3ccccc3c2=O)cc(OC)c1OC,-28,-5%,-3,-9.5,3,
Cc1ccc(S(=O)(=O)NC(=O)Nc2cc(C)no2)cc1,/,/,/,-0.1,2,
COc1ccc(C)cc1N(CC(=O)N1CCCC1)S(C)(=O)=O,/,/,/,0.5,62,
Cc1nn(Cc2ccccc2)c(C)c1C(=O)NCCN1C(=O)S/C(=C\c2ccc(F)cc2)C1=O,-26,-5%,7,-0.7,-1,
COc1ccc(NC(=O)CN(C)C(=O)c2cc(-c3ccc(Cl)cc3)nc3ccccc23)cc1,/,/,/,0.5,3,
Cc1cc(NC(=O)COc2nnc(-c3ccccc3)c3ccccc23)no1,-52,0%,2,/,/,
CCn1c(O)c(N=NC(=O)CNC(=O)/C=C/c2ccco2)c2ccccc21,-135,-6%,4,0.7,5,
Cc1cc(Cl)c(S(=O)(=O)N2CCCC2)cc1OCC(N)=O,/,1%,12,1.0,-6,
O=C(O)c1ccc(N(c2ccccc2)c2ccccc2)cc1,-20,6%,-10,/,13,
C[C@@]12CC(=O)NC1N(C(=O)c1ccccc1)C(c1ccccc1OC(=O)c1ccccc1)C2 (stereo partly specified),-18,-3%,2,3.6,-1,
COc1ccc(CN2CCNC(=O)C2CC(=O)NCCCn2cccn2)cc1C (stereo unspecified),/,/,/,0.0,-10,
COc1ccc(Cl)cc1N1C(=O)CN(Cc2cc(OC)c(OC)c(OC)c2)C1=S,/,/,/,-4.1,-2,
COc1ccc(C(CNC(=O)C2CC2)N(C)C)cc1 (stereo unspecified),/,/,/,-0.1,-3,
CCSc1nc(O)cc(=O)[nH]1,/,/,/,-1.2,6,
